RanGTP-Imp inh – inhibitors of RanGTP-importin-beta interaction, primary screen, biochemical, FRET, CFP-Ran, YFP-importin-beta, homogeneous; inhibition, % (concentration not given with the values); 1.1% of 300,000 active; Ran GTPase (GTP-bound) - importin-beta complex; cell-free CFP-Ran/YFP-importin-beta FRET ratio;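 active = most replicates above 15%; inconclusive = exactly half above 15%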;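 also: 0% = DMSO wells and 100% = Ran loaded with GDP instead of GTP; wells of about 40 µL received 100 nL stock; the first replicate is given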
ALR H2O2 inh – inhibitors of human ALR sulfhydryl oxidase, primary screen, biochemical, H2O2 detection, HRP-luminol luminescence, single point. purified ALR, DTT oxidation. inhibition, % (test concentration not listed). 3.8% of 290,000 active. AID 485317, 2010;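 active = mean and each replicate at 75% or more; inconclusive = only one of the two met; inactive = neither met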;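 also: stock transfer was 7.5 nL into about 7.5 µL; 0% = neutral wells and 100% = wells with inactivated enzyme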
HNF4A DNA FP – change in binding of human HNF4A to DNA, primary screen, biochemical, fluorescence polarization, FITC-DNA | Hepatocyte nuclear factor 4-alpha (Homo sapiens), P41235 | 1 h | activity change, % at 10 µM | 0.3% of 360,000 active; in the data active = activity change above about 30%, passing the limit was not always enough;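 also: controls were the assay level and a saturating level of protein; the project sought stronger binding though the title names inhibitors; some compounds called inactive have numbers as strong as hits; positive values seem to mean higher polarization but the record does not say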
Beta2AR agonist – beta2AR agonists driving receptor internalization, primary screen, cell-based, FAP fluorogen, flow cytometry; Beta-2 adrenergic receptor (Homo sapiens), P07550; Am2.2-beta2AR cells; reference of the scale not given here; response, % (concentration not given with the values); 0.43% of 340,000 active; AID 504454, 2011;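 active = response above a set limit, near 3 SD of response in nonfluorescent compounds, cut at about 42% in these data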;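 also: stock transfer was 100 nL into about 11 µL; a reference agonist was the positive control; negative values mostly stem from fluorescent compounds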
LANA-H2A inh – blockers of LANA interaction with H2A/H2B – biochemical, FP readout, HTS, primary screen; 0.6% of 320,000 active; AID 2629, 2010; inhibition, % (concentration not given with the values); Protein LANA1 (Human herpesvirus 8 type P (isolate GK18)), Q9QR71; cell-free LANA-H2A/H2B peptide, fluorescence polarization; in the data active = inhibition mostly above about 10%, no sharp cut-off; inactive = mostly below about 6.7%;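 also: stock transfer was 7.5 nL into about 10 µL; 0% = median of vehicle wells and 100% = median of positive control wells; one replicate is shown; the record names a cut of 25% in any replicate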
Target sequence (Q9QR71 whole entry, looked up): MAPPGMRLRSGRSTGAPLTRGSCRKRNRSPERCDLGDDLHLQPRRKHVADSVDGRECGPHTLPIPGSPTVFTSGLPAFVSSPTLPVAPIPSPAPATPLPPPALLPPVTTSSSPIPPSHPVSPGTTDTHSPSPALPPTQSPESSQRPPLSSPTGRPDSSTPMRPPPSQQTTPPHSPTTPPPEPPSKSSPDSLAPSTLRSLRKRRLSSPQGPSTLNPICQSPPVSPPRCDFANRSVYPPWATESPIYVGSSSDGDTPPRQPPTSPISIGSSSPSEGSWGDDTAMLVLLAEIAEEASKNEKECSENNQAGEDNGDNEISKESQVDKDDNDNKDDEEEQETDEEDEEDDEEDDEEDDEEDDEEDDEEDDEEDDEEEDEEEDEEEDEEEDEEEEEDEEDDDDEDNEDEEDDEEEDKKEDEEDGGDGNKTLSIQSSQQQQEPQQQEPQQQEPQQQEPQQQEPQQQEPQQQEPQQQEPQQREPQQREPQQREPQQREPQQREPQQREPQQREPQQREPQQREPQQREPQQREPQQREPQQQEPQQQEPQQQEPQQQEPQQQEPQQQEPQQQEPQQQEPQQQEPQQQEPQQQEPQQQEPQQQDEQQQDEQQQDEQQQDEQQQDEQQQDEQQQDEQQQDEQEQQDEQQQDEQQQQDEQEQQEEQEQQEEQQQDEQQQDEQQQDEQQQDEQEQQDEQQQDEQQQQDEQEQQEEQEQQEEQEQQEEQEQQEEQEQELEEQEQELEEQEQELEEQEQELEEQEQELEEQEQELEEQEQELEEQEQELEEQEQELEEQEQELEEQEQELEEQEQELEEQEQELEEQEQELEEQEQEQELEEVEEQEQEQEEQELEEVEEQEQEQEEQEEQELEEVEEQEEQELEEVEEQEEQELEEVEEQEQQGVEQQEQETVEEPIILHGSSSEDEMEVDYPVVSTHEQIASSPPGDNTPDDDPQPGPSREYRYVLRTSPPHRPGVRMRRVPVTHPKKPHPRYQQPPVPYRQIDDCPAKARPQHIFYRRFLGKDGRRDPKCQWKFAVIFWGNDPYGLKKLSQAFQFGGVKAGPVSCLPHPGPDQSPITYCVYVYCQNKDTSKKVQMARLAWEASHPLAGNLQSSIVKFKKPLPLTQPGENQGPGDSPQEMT
Vif TR-FRET – inhibitors of Vif binding to APOBEC3G peptide, primary screen, biochemical, TR-FRET, GST-Vif 1-94, biotin-A3G peptide, dose response retest (AID 1117319). TR-FRET GST-Vif / biotin-A3G peptide binding; higher % means a stronger effect; test concentration not given here; strong numbers were not always called active. inhibition, %, or IC50 in µM where a hit was titrated. 0.57% of 260,000 active;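 active = above the screen mean plus three standard deviations and confirmed in dose response; inconclusive = results disagree or hit not tested in dose response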;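 also: Vif residues 1-94 fused to GST binding biotinylated APOBEC3G peptide 110-148; 0% = full assay without inhibitor and 100% = GST in place of GST-Vif; retest series ran down from 100 µM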
Calb FLC – C. albicans growth inhibition with fluconazole, primary screen, CaCi-2 strain, Alamar Blue fluorescence. C. albicans CaCi-2 (fluconazole-resistant clinical isolate) + fluconazole, 48 h. growth inhibition, % (no concentration beside the values). 0.57% of 300,000 active. AID 1979, 2009;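 active = most replicates above 75%; inconclusive = exactly half above 75%; inactive = most below 75%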;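 also: all wells also contain fluconazole at 8 µg/ml as a sub-toxic cotreatment; 0% = median of DMSO wells and 100% = median of geldanamycin control wells; wells of about 8 µL received 7.5 nL stock; the first replicate is given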
* hit, by the source's call; ? = inconclusive; / = not tested or not shown.

#	canonical_smiles	RanGTP-Imp inh	ALR H2O2 inh	HNF4A DNA FP	Beta2AR agonist	LANA-H2A inh	Vif TR-FRET	Calb FLC
1	O=c1cc(CSc2nnc(NC3CCCCC3)s2)nc2sccn12	?	4	2.0	-7	3.4	2%	6
2	COCCCn1c(C)cc(C(=O)COC(=O)CCc2nc3ccccc3c(=O)[nH]2)c1C	-1.0	-10	/	/	4.2	/	-5
3	CCOc1ccccc1NC(=O)Cn1nnc(C(=O)Nc2ccccc2Cl)c1N	4.3	/	0.8	-3	/	-2%	-7
4	O=C(CC1CCS(=O)(=O)C1)NC1CCCCC1 (configuration not stated)	-2.5	-5	-0.9	6	-6.6	?	6
5	O=C(CCN(CCO)Cc1ccccc1)Nc1ccc(Br)cc1	0.4	10	2.4	-4	2.6	-6%	-1
6	COc1ccccc1N1C(=O)c2cccc3c(C(=O)O)ccc(c23)C1=O	2.6	-1	3.4	4	-1.5	2%	20
7	CCC(Oc1ccccc1)C(=O)N(C)CC(=O)N(CC(C)C)c1c(N)n(CC(C)C)c(=O)[nH]c1=O (configuration not stated)	-4.5	-7	-2.7	1	-1.5	2%	1
8	CC(OC(=O)c1ccc(CN2CCCC2=O)cc1)C(=O)Nc1ccc(Cl)cc1 (configuration not stated)	/	/	1.6	-2	2.9	-4%	/
9	CCC(=O)N1CCc2cc(Br)cc(S(=O)(=O)CCC(=O)NCCOC)c21	0.0	-16	-2.4	2	-0.5	-1%	-10
10	OCC1(CCc2ccccc2)CCN(Cc2cc(F)ccc2-n2cccn2)CC1	2.3	-1	-1.1	10	-6.7	-6%	-11
11	O=c1cc(N2CCCCC2)c2ccccc2o1	-1.7	7	-3.2	-9	0.8	3%	1
12	CCn1c(CNc2nc(-c3ccccc3)cs2)nnc1SCC(=O)NCc1ccco1	0.1	/	-1.5	-7	/	18%	3
13	CS(=O)(=O)N1CCN(C(=O)c2ccc3c(c2)OCCO3)CC1	-3.1	2	2.5	4	2.6	/	-2
14	CCOC(=O)N/N=C(C)/C=C/c1ccco1	-2.0	-10	-0.7	0	0.3	6%	0
15	CN1/C(=C\C(=O)C[n+]2ccc3ccccc3c2)C(C)(C)c2ccccc21	-3.6	/	0.9	-9	/	-1%	-2
16	COc1ccc(NC(=O)C2CCCN(S(=O)(=O)c3ccc(C)cc3)C2)cc1OC (configuration not stated)	0.9	-22	-0.7	2	3.7	17%	8
17	O=C(O)CSc1nnc(-c2ccccc2)o1	0.4	-7	-2.7	10	1.9	-3%	-5
18	COc1ccc(C2CC3(CC(C)(C)NC(=O)N3)Oc3cc(O)ccc32)cc1 (configuration not stated)	3.2	-3	1.4	3	-3.1	1%	-4
19	Cc1ccc(/C=C/C(=O)N2CCN(c3ccc(F)cc3)CC2)o1	3.0	-39	-0.6	-2	0.2	12%	16
20	Cn1c(=O)c2c(nc(N3CCOCC3)n2CCSc2ncccn2)n(C)c1=O	?	-5	-3.1	-24	11	3%	-1

Fetched one by one from the list above:
#	canonical_smiles	RanGTP-Imp inh	ALR H2O2 inh	HNF4A DNA FP	Beta2AR agonist	LANA-H2A inh	Vif TR-FRET	Calb FLC
6	COc1ccccc1N1C(=O)c2cccc3c(C(=O)O)ccc(c23)C1=O	2.6	-1	3.4	4	-1.5	2%	20
16	COc1ccc(NC(=O)C2CCCN(S(=O)(=O)c3ccc(C)cc3)C2)cc1OC (configuration not stated)	0.9	-22	-0.7	2	3.7	17%	8
19	Cc1ccc(/C=C/C(=O)N2CCN(c3ccc(F)cc3)CC2)o1	3.0	-39	-0.6	-2	0.2	12%	16
18	COc1ccc(C2CC3(CC(C)(C)NC(=O)N3)Oc3cc(O)ccc32)cc1 (configuration not stated)	3.2	-3	1.4	3	-3.1	1%	-4
13	CS(=O)(=O)N1CCN(C(=O)c2ccc3c(c2)OCCO3)CC1	-3.1	2	2.5	4	2.6	/	-2
9	CCC(=O)N1CCc2cc(Br)cc(S(=O)(=O)CCC(=O)NCCOC)c21	0.0	-16	-2.4	2	-0.5	-1%	-10

(list continues)
#	canonical_smiles	RanGTP-Imp inh	ALR H2O2 inh	HNF4A DNA FP	Beta2AR agonist	LANA-H2A inh	Vif TR-FRET	Calb FLC
21	Cc1ccc(S(=O)(=O)CC(=O)Nc2nnc(C(C)(C)C)s2)cc1	-0.5	-5	0.3	1	3.4	/	0
22	Cc1cccc(-n2c(SCC(=O)c3c(N)n(C4CC4)c(=O)[nH]c3=O)nnc2N2CCOCC2)c1	/	0	-1.1	2	0.9	-5%	/
23	CCC(=O)Nc1cccc(NC(=S)NC(=O)c2ccc(Cl)cc2Cl)c1	-1.3	10	4.3	-3	5.3	9%	7
24	CCC(C)NC(=O)C1c2ccccc2C(=O)N(c2ccc(OC)cc2)C1c1ccc(OC)cc1 (configuration not stated)	0.7	/	-1.8	6	-3.2	-3%	-23
25	CSc1nc2ccccc2n1C(=O)NC1CCCCC1	2.2	-10	-2.0	3	1.2	16%	-9
26	COc1ccc(C)cc1N(C(=O)c1ccco1)C(C(=O)NC1CCCC1)c1cc(OC)c(OC)c(OC)c1 (configuration not stated)	-1.6	-14	3.8	0	2.2	/	10
27	Cc1cc(C(=O)N/N=C/c2cccnc2)c2ccccc2n1	3.1	-4	0.5	-8	0.3	1%	-16
28	CC1CN(/C(=N\S(=O)(=O)c2ccccc2)c2ccccc2)CC(C)O1 (configuration not stated)	-1.5	-2	-2.8	3	-2.3	-8%	1
29	CN1C(=O)c2ccc(NC(=O)c3c(F)c(F)c(F)c(F)c3F)cc2C1=O	-1.5	-4	-2.6	6	1.0	-2%	3
30	Cc1c2cc[n+](CCN3CCCCC3)cc2c(C)c2c1[nH]c1ccc(O)cc12	/	/	49	-5	/	28%	/
31	COc1ccc(CC(=O)Nc2ccc(/C(C)=N/NC(=O)c3ccc(OC)cc3OC)cc2)cc1	1.4	-23	12	-13	0.5	/	-11
32	Cc1cccc(OCCNC(=O)c2cccc(Oc3ccc(C(F)(F)F)cc3[N+](=O)[O-])c2)c1	1.7	4	-0.7	-5	0.3	19%	-12
33	CCOC(=O)c1c(C)[nH]c(C)c1C(=O)COC(=O)c1cc(OC)cc(OC)c1	-0.5	-10	-0.3	6	-5.6	-5%	-3
34	Cc1ccc(S(=O)(=O)N(CC(=O)N/N=C/c2cccc3c2OCCO3)c2ccccc2F)cc1	-1.3	-15	-1.2	-12	-8.3	>100µM*	-4
35	COc1ccc([C@H](C)NC[C@H](O)c2ccc(O)c(NC=O)c2)cc1	4.0	13	-0.6	26	-11	26%	0
36	C=CCn1c(CSc2ccccc2[N+](=O)[O-])n[nH]c1=S	1.4	58	-23	12	-4.1	7%	1
37	COc1cccc2c1OC1(C)CC2NC(=O)N1Cc1ccccc1 (configuration not stated)	5.1	-14	-0.7	1	0.4	10%	-11
38	CCNC(=O)COc1cccc2ccccc12	2.0	-35	-4.1	-3	0.3	1%	-11
39	CC1CCc2c(C(=O)Nc3nccs3)csc2C1 (configuration not stated)	1.1	-2	-1.4	-19	-16	24%	-7
40	Cc1ccc(C)c(NC(=O)CSc2nnc(-c3ccccc3C)o2)c1	1.7	-3	-0.3	2	-3.7	-6%	?
41	CC(=O)n1nc(-c2ccc(C)cc2)nc1NCc1ccc(F)cc1	-0.2	/	-3.5	-3	/	-9%	-14
42	CCC1CCCCN1CCCNC(=O)Cn1cnc2sc(C)c(S(=O)(=O)N3CCC(C)CC3)c2c1=O (configuration not stated)	-0.7	-24	0.7	2	-1.0	/	16
43	OCCC1CN(Cc2cccn2-c2nccs2)CCN1CCc1ccccc1 (configuration not stated)	0.8	-5	3.4	-5	-2.7	/	-16
44	CCC1(CC)NC(=O)N(CC(=O)OCC(=O)Nc2ncc(Cl)cc2Cl)C1=O	-4.4	-2	-4.3	-4	6.6	9%	-3
45	CC(C)NC(=O)NC(=O)COC(=O)c1cccc(S(=O)(=O)N2CCCCC2)c1	4.0	-6	1.1	-3	-3.5	-1%	1
46	Cc1nc2ccccc2n1CC(O)c1ccccc1 (configuration not stated)	0.8	-9	-4.2	2	0.5	/	0
47	Cc1cc(C)cc(NC(=O)COC(=O)COc2cccc3c2OC(C)(C)C3)c1	0.3	0	-0.1	-3	-2.5	-1%	0
48	COc1ccccc1CNC(=O)COC(=O)c1c(C)nn(-c2ccccc2)c1Cl	0.9	-1	-0.3	4	3.8	/	-1
49	NS(=O)(=O)c1ccc(N=Nc2ccc(=O)[nH]c2O)cc1	0.2	2	-30	1	-4.7	5.2µM*	22
50	CCOC(=O)c1cccc(NC(=O)CN(c2ccc(OC)cc2)S(=O)(=O)c2c(C)noc2C)c1	3.0	-7	0.9	2	1.0	-2%	5
51	Cc1ccc(C(=O)OCC(=O)NCc2cccs2)c(C)c1	4.0	0	-1.4	-4	-0.9	-3%	-2
52	Cc1cc(C)c(NC(=O)c2ccc(S(=O)(=O)N3CCOCC3)cc2)c(C)c1	0.2	-13	-0.9	0	2.7	-5%	-9
53	COCCCC1CCN(C(=O)C2CCC(=O)N(Cc3cccc(F)c3)C2)CC1 (configuration not stated)	3.9	-3	0.8	10	-2.7	/	-1
54	COC(=O)COc1ccc(C)cc1-n1nc2ccccc2n1	-1.4	/	0.3	0	-0.5	-4%	23
55	CCOc1ccc(NC(=O)CSc2nccn2C)cc1	9.4	99*	0.7	-1	-5.3	?	2
56	COc1cccc(C(=O)CC(C#N)c2ccc(F)cc2)c1 (configuration not stated)	1.9	-2	4.9	-11	-0.3	-1%	-4
57	CCc1ccc(OCC(=O)Nc2ccc(N3CCN(S(C)(=O)=O)CC3)cc2)cc1	-0.4	-5	3.3	3	1.2	3%	0
58	COc1ccccc1-c1cc(C(F)(F)F)nc(N2CCCCC2)n1	-0.3	-3	-5.4	3	-1.6	-4%	-11
59	CC1CCC(NC(=O)c2cc(Cl)nc3ccccc23)CC1 (configuration not stated)	/	/	0.8	2	-4.9	-10%	/
60	O=C(c1ccc2c(=O)n(Cc3ccccc3Cl)c(=S)[nH]c2c1)N1CCCC1	-3.1	0	8.1	2	-1.5	5%	24
61	Cc1ccccc1OCC(=O)Nc1ccc2[nH]ncc2c1	8.1	-4	-5.6	2	-0.9	/	2
62	CCOC(=O)N1CCC(NC(=O)c2cc3sccc3n2CC)CC1	2.0	3	2.0	-9	-1.2	?	-1

Individual results from the entries so far.
For HNF4A DNA FP, CC1CN(/C(=N\S(=O)(=O)c2ccccc2)c2ccccc2)CC(C)O1 (configuration not stated) is entered as -2.8
For HNF4A DNA FP, O=c1cc(CSc2nnc(NC3CCCCC3)s2)nc2sccn12 is entered as 2.0
For RanGTP-Imp inh, Cc1ccc(C)c(NC(=O)CSc2nnc(-c3ccccc3C)o2)c1 is entered as 1.7
For LANA-H2A inh, Cc1cc(C)cc(NC(=O)COC(=O)COc2cccc3c2OC(C)(C)C3)c1 is entered as -2.5
For RanGTP-Imp inh, CC(C)NC(=O)NC(=O)COC(=O)c1cccc(S(=O)(=O)N2CCCCC2)c1 is entered as 4.0
For RanGTP-Imp inh, COc1ccc([C@H](C)NC[C@H](O)c2ccc(O)c(NC=O)c2)cc1 is entered as 4.0

Bioassay records: PubChem BioAssay, several laboratories
